# CSC inhib: cancer stem cell inhibition; actives 1.1% (n = 300,000); inhibition, % at 7.5 µM; cancer stem cell-like cells viability, luminescence;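 active = mean at 75% or more and at least half the replicates too; inconclusive = mean and replicates disagree; tested in HMLE shEcad cells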;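 note: 0% = median of negative and 100% = median of positive control wells; the first replicate is given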
# HIV Env fusion: HIV envelope-mediated fusion inhibition; actives 1.1% (n = 360,000); inhibition, % at 12.3 µM; HeLa-JRFL Env/CEM21 cell fusion, luciferase;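 active = mean replicate inhibition score of at least 50 and every replicate individually at or above 50; inconclusive = only one of the two criteria met; inactive = mean below 50 and not all replicates reaching 50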;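 note: 0% = plate neutral controls and 100% = maraviroc near 300 nM; one replicate is shown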
# MT1-MMP act inh: inhibitors of human MT1-MMP activation; P50281; HT1080 RFP-PRO-GFP cells, GFP/RFP ratio fluorescence, overnight; percent of plate control window, DMSO zero; GFP/RFP ratio change, % at 20 µM; actives 0.061% (n = 360,000);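 active = GFP/RFP ratio change of at least 30% with cell ATP level not reduced by more than half and red fluorescence within 50% of control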; note: strong numbers were not always called active
#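 Assay system: HT1080 RFP-PRO-GFP cells. Benchmarks: DMSO vehicle wells and RFP-L50D-GFP reporter cell wells. Times: overnight cell settling, then overnight compound exposure, 37 °C, 5% CO2. Compound: 20 µM single dose, 1% DMSO. Read-out basis: GFP/RFP fluorescence ratio.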
# eIF4H inh: inhibitors of RNA binding by human eIF4H. Q15056. eIF4H fluorescence polarization binding assay. inhibition, % at 35 µM. actives 0.94% (n = 290,000);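 active = 50% or more with normal probe brightness, or confirmed in later tests; inconclusive = above 50% with abnormal brightness, or retests that disagree; inactive = below 50% or failed in later tests; about a fifth of its hits are not listed in these tables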;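 note: calls also rest on retests at 20 µM and on dose response follow-up; 0% = protein and probe with vehicle and 100% = probe without protein; strong numbers were not always called active; many hits fall short of the cut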
# UUG fidelity: alters start codon recognition fidelity in yeast. AID 602363. S. cerevisiae UUG-firefly luciferase reporter, luminescence/redox ratio. activity score, % at 18.7 µM. actives 0.13% (n = 350,000);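 active = replicate mean at a twofold rise or more, about +100% in these data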;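 note: firefly luciferase made from a UUG start codon reports start codon fidelity; reporter light over untreated wells divided by growth signal over untreated wells; some hits fall short of that in this replicate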
# PABP polyA inh: blocks human PABP binding to poly(A) RNA; P11940; fluorescence polarization; inhibition, % at 35 µM; actives 1% (n = 290,000); AID 2014;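 active = 50% or more with normal probe brightness, or confirmed in later tests; inconclusive = above 50% with abnormal brightness, or retests that disagree; inactive = below 50% or failed in later tests; about a fifth of its hits are not listed in these tables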;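 note: calls also rest on retests at 20 µM and on dose response follow-up; controls were probe without protein and protein plus probe with vehicle; some compounds called inactive have numbers as strong as hits; many hits fall short of the cut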
# Rce1 inhib: yeast Ras-converting enzyme inhibition; Q03530; actives 0.27% (n = 290,000); AID 2563; yeast membranes, quenched prenylated peptide cleavage fluorescence; calls only;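 active = fall in fluorescence gain of 50% or more versus controls, with final raw signal at or below 3038400; inconclusive = same 50% fall but final raw signal above 3038400; inactive = fall in fluorescence gain under 50%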;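 note: plate controls were neutral control wells for no effect and wells lacking membranes for full effect; tested at 10 µM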
# Target sequence (Q03530 whole entry, looked up): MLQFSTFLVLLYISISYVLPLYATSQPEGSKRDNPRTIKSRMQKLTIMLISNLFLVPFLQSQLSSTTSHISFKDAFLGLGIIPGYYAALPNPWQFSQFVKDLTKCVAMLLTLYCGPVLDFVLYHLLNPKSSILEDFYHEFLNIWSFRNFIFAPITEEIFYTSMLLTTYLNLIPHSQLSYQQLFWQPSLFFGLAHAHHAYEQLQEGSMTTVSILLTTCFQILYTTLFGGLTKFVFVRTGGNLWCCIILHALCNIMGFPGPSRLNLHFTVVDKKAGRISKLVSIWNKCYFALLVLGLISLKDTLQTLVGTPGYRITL
# eIF4H inh retest: second read-out of eIF4H inh, no call of its own (marks repeat the call); inhibition, %; compound at 20 µM; confirmation average;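 mean of two retest wells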
# PABP polyA inh retest: recorded beside PABP polyA inh, whose call it bears; inhibition, %; compound at 20 µM; confirmation repeats;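 mean of two retest wells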
# MT1-MMP act inh RFP: recorded beside MT1-MMP act inh, whose call it bears; RFP signal change, %; measured here: RFP expression control read;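 0 = vehicle wells; hits needed this value within 50% of zero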
# * marks the source's active call; other numbers are inactive results; i = inactive; ? = inconclusive; / = no result given. Not a hit list; about 2.9% have a hit in one of these screens.
SMILES,CSC inhib,HIV Env fusion,MT1-MMP act inh,MT1-MMP act inh RFP,eIF4H inh,UUG fidelity,PABP polyA inh,Rce1 inhib,others
OCCC1CN(Cc2cccc(-c3ccco3)c2)CCN1Cc1ccsc1 (configuration not stated),24,-15,-4,-2,3,/,-7,i,
CCOc1ccc2[nH]c3c(NCCCOC)ncnc3c2c1,-4,14,12,2,2,6,-8,i,
Cc1ccc(O)c(C(=O)c2cnn(C(=O)COc3ccc(Cl)cc3)c2)c1,-15,25,-4,-7,3,/,21,i,
CCc1nn(CC(=O)NCCC(C)C)c(=O)c2cc3c(OC)cccc3n12,11,13,2,-1,3,-13,2,i,
O=C(CC(C(=O)O)c1ccccc1)c1cccs1 (configuration not stated),4,-5,4,-4,8,/,12,i,
CC1CCc2c(sc(NC(=O)C3c4ccccc4Oc4ccccc43)c2C(N)=O)C1 (configuration not stated),29,19,-2,-2,14,/,-4,i,
CC(C)c1ccc(NC(=O)c2snc3ccc(Cl)cc23)cc1,80*,-53,-4,-6,-2,/,-7,i,
CC(=O)Cc1nsc(Nc2ccc(C)cc2)n1,-4,-56,0,-2,2,-19,4,i,
Cc1ccc(S(=O)(=O)Nc2cccc(C(=O)NCCCn3ccnc3)c2)cc1F,8,-22,1,0,/,/,/,i,
O=C(c1ccc(NC(=S)NCc2ccco2)cc1)N1CCOCC1,-11,3,-3,-4,-2,/,2,i,
COc1ccc(CNC2C[C@H]3CCCC(=O)N4CC[C@@H](C2)[C@@H]34)cc1 (some centres not stated),/,-22,0,3,/,-1,/,/,
COc1ccccc1NS(=O)(=O)c1cc(NC(=O)/C=C/c2cccs2)ccc1N1CCOCC1,-17,-76,3,-6,-12,-12,4,i,
CCOC(=O)C(=O)Nc1ccccc1C#N,/,1,0,4,-14,/,1,i,
CC(=O)Nc1ccc(NS(=O)(=O)C(F)(F)F)cc1,-8,-37,7,8,-4,-3,-5,i,
Cc1ccc(C(=O)Nc2ccc3c(c2)OCO3)cc1S(=O)(=O)N1CCOCC1,-10,-2,1,-3,-15,6,-3,i,
CCOC(=O)c1ccc(Nc2cc(C)nc3ncnn23)cc1,-4,12,-32,1,9,0,-6,i,
C[C@]12c3[nH]c4cc(-c5ccco5)ccc4c3CCN1C(=O)[C@@H](CC(=O)NCC13CC4CC(CC(C4)C1)C3)C[C@@H]2C(=O)N1CCOCC1,/,14,-5,-13,/,-33,/,/,
COc1cc2c(cc1OC)C(c1ccc(-c3ccccc3Cl)o1)=NCC2,25,/,-8,-8,27,/,16,i,
COc1ccc(CNC(=O)c2cc3c(s2)CS(=O)C3)cc1 (configuration not stated),-3,28,-1,2,-13,0,1,i,
CCCNC(=O)C1(C)CCCN(C(=O)c2c(F)ccc(C)c2F)C1 (configuration not stated),/,12,5,7,/,-3,/,/,
COc1cc(/C=C2\SC(=O)NC2=O)ccc1OCc1ccc(Cl)nc1,8,8,6,-3,82,-3,4,i,eIF4H inh retest=-1;PABP polyA inh retest=8
CC(SCc1ccccc1)C(=O)N/N=C/c1cccs1 (configuration not stated),-11,-7,1,5,-4,-17,2,i,
COC(=O)c1cc(CSc2nc3ccccc3[nH]2)oc1C,-7,/,-6,-21,-5,/,2,i,
CC(=O)Nc1ccc(NC(=S)Nc2ccc(F)cc2)cc1,-2,24,4,6,-5,-19,-12,i,
O=C(NCCc1ccccn1)C1CCN(S(=O)(=O)c2ccc(Cl)cc2)CC1,6,-11,6,5,-4,-16,-5,i,
SMILES,CSC inhib,HIV Env fusion,MT1-MMP act inh,MT1-MMP act inh RFP,eIF4H inh,UUG fidelity,PABP polyA inh,Rce1 inhib,others
CCn1c(SCC(=O)N=Nc2c(O)[nH]c3ccccc23)nc2ccccc21,-4,22,-4,0,1,/,39,i,
COc1ccc(C2CC2/C(C)=N/OC(=O)c2cccs2)cc1 (configuration not stated),-5,/,4,5,-9,-4,9,i,
Cc1ccc(S(=O)(=O)N(C)CC(=O)OCc2nnc(-c3ccccc3)o2)cc1,-3,/,-1,-4,7,-4,8,i,
CCn1c(CCc2ccccc2)n[nH]c1=S,6,-39,-1,0,-1,/,4,i,
CCN(CCCNC(=O)CCNC(=O)Cn1ccc2ccccc2c1=O)c1ccccc1,/,/,-3,0,-1,-2,2,i,
O=C(CC[C@H]1O[C@@H](n2ccc(=O)[nH]c2=O)[C@H](O)[C@@H]1O)N[C@H](Cc1ccccc1)C(=O)NCc1ccccc1,/,8,1,5,/,-12,/,/,
O=C(Nc1cccnc1)/C(N=Nc1cccnc1)=C(\O)c1ccccc1,4,/,6,9,-7,/,-1,i,
CCc1cc(C(=O)Cc2nc3ccccc3s2)c(O)cc1OCC(=O)O,3,-7,6,7,10,-3,6,i,
Cc1ccccc1NS(=O)(=O)c1cc(C(=O)Nc2cccnc2)ccc1C,-26,-5,2,-3,9,-7,14,i,
Cc1sc(NC(=O)c2ccc(Br)s2)c(C(N)=O)c1C,/,-141,1,-5,78,-12,4,i,eIF4H inh retest=22;PABP polyA inh retest=34
CCCn1c2c(c(O)c(C(=O)Nc3ccc(OC)cc3)c1=O)CCCC2,3,/,8,3,1,-22,-8,i,
COC(=O)C1=C[C@@H](C(=O)OC)[C@@H]2C3=C(C(=O)[C@@]2(C)NC(=O)c2ccccc2)[C@H](C)n2c(=O)n(C)c(=O)n2[C@@H]3C1,-2,-27,-1,6,/,-3,/,i,
Cc1ccc2c(c1)C1CN(C)CCC1N2C(=S)NC(=O)c1ccc(Br)cc1 (configuration not stated),16,-3,-1,0,-4,-30,4,i,
Cc1ccc(-c2nn(CC(=O)O)c(=O)c3ccccc23)cc1,-14,-29,3,5,5,-11,2,i,
Cc1c(C(C)(C)O)[nH]c2ccc(C(F)(F)F)cc12,-10,8,7,0,-3,-16,-4,i,
CCCc1nnc(SCC(=O)N2CCCCC2)n1CC1CCCO1 (configuration not stated),11,-16,4,15,0,-9,5,i,
COc1ccc(CNC(=O)C2CC(c3ccc(F)cc3)=NO2)cc1 (configuration not stated),15,-1,6,6,-4,-4,0,i,
CSC1=NSC2=NC(=O)/C(=C/c3coc4ccc(O)cc4c3=O)C(=N)N12,4,-2,-48,20,?,/,-7,i,
CCCc1cc(=O)oc2cc(OC(C)C(=O)NCc3ccccn3)c(Cl)cc12 (configuration not stated),7,11,-4,1,-9,-12,3,i,
Cc1ccc2nc(NC3=NCN(Cc4cccnc4)CN3)nc(C)c2c1,/,2,4,-4,-11,-17,-4,/,
COc1ccccc1CN1CC(=O)N2CSC[C@H]2C1=O,5,-10,-1,3,-1,-19,-5,i,
CN1C(c2ccccc2)CCOS1(=O)=O (configuration not stated),5,-25,-3,0,-8,-35,20,i,
CCCOc1ccc(NC(=O)C2CC(=O)N/C(=N/N=C(\C)CCc3ccc4c(c3)OCO4)S2)cc1 (configuration not stated),-2,21,0,4,-12,/,-6,i,
Cc1cc(-c2ccccc2)nc2[nH]n(-c3ccccc3)c(=O)c12,10,-15,2,2,0,-9,-6,i,
COc1ccc(OC)c(NC(=O)c2cnn(-c3ccccc3Cl)c2NC(=O)c2ccco2)c1,/,-13,6,5,13,-1,3,i,
SMILES,CSC inhib,HIV Env fusion,MT1-MMP act inh,MT1-MMP act inh RFP,eIF4H inh,UUG fidelity,PABP polyA inh,Rce1 inhib,others
NS(=O)(=O)c1cc2c(cc1Cl)NCNS2(=O)=O,/,i,0,7,-6,-6,3,i,
CN1CCN(c2ncccc2S(=O)(=O)N2CCCCC2)CC1,/,/,-6,0,12,/,-1,i,
Cc1cccc(C(=O)NCC(=O)N2CCN(S(=O)(=O)c3ccccc3)CC2)c1,4,-5,-1,-2,/,/,/,i,
CCOc1ccccc1CN1CCN(Cc2ccc3cccc(OC)c3n2)CC1CCO (configuration not stated),/,-3,6,-4,13,-9,-12,i,
COc1ccc(C2=Cc3ccc(OC(C)=O)cc3OC2)cc1,/,-127,5,1,/,-19,/,/,
Cc1cc(NC(=O)C2COc3ccccc3O2)no1 (configuration not stated),-2,-16,-3,1,-1,-28,33,i,
Cc1ccccc1Nc1nc(N)nc(COc2ccc(C#N)cc2)n1,-23,-2,15,-5,26,/,2,/,
CN1CCN(C(=S)c2cn(Cc3cccc(F)c3)c3ccccc23)CC1,4,0,-4,1,-4,/,2,i,
COc1ccc(NC(=O)c2cc([N+](=O)[O-])ccc2N2CCN(C)CC2)cc1,-9,-31,0,4,-2,/,1,i,
Cc1ccc(CN(c2ccc(C(=O)NCc3ccc4c(c3)OCO4)cc2)S(C)(=O)=O)cc1,-11,-14,-2,-14,0,-5,-8,i,
CC1=C(C(=O)Nc2ccccc2F)C(c2cccs2)NC(=S)N1 (configuration not stated),-8,18,3,2,-11,/,2,i,
N/C(=N\OC(=O)c1ccoc1)c1ccc(Br)cc1,-1,-109,2,-4,2,-14,4,i,
Cc1[nH]c2ccccc2c1C(=O)COC(=O)c1ccccc1O,-4,-44,1,1,/,-21,/,/,
Cc1cc(C(F)(F)F)n2ncc(-c3ccccc3)c2n1,-9,-23,4,-4,-2,/,4,i,
COc1ccccc1N(C)S(=O)(=O)c1ccc(C(=O)N(C)Cc2cccc(OC)c2OC)cc1,/,-4,0,0,/,-7,/,/,
Cc1ccc(N/C=C2\CCCCC2=O)c(C)c1,-9,0,-6,2,1,/,3,/,
Cc1cc(=O)oc2cc(OC(C)C(=O)Nc3ccc(N4CCOCC4)cc3)ccc12 (configuration not stated),5,/,3,0,8,/,21,i,
Cc1ccccc1-c1nnc(SCC(=O)c2c(N)n(C3CC3)c(=O)[nH]c2=O)o1,-8,2,-4,-2,/,-12,/,/,
CCOC(=O)N1CCN(S(=O)(=O)N2CCCC(C(=O)NCCc3ccccc3)C2)CC1 (configuration not stated),-14,-3,-2,-2,-9,0,-1,i,
COCCn1c(Cc2ccccc2)nnc1SCC(=O)N1CCCCC1C (configuration not stated),-8,-2,-1,2,-5,-14,-7,i,
O=C(CCSc1ccc(Cl)cc1)N1CCOCC1,-9,-9,4,4,11,-8,10,i,
CCNC(=S)NNC(=O)c1cccnc1,2,-34,1,1,-4,-24,-7,i,
O=C(Nc1ncccn1)C1CCCCC1,-1,-4,0,0,-1,/,-1,i,
O=S(=O)(c1ccc(F)cc1)N(CCO)CC(O)Cn1c2ccccc2c2ccccc21 (configuration not stated),-6,66*,-6,-3,-2,-25,-9,i,
O=c1[nH]cc(S(=O)(=O)N2CCN(c3cccc(C(F)(F)F)c3)CC2)c(=O)[nH]1,-7,-1,1,0,/,-5,/,i,
CCOC(=O)N1CCN(c2ccc(S(=O)(=O)N3CCC(C)CC3)cc2[N+](=O)[O-])CC1,/,1,2,-21,/,-3,/,/,
COc1ccc(CN2CCCC(C(=O)N3CCCC3)C2)cc1 (configuration not stated),-3,5,3,6,17,-9,4,i,
CC(=O)NC1CCN(C(=O)N2CCCC2)CC1,7,1,1,0,-7,-17,-2,i,
CCOc1ccc(NC(=O)COC(=O)CN2CCCCCC2=O)cc1,-13,-18,2,7,/,/,/,/,
O=C(NC(Cc1ccccc1)C(=O)O)/C(=C\c1ccccc1)NC(=O)c1ccc(Br)o1 (configuration not stated),-15,-4,-5,-3,-2,1,-11,i,

# Random excerpt: 2 entries already listed.
SMILES,CSC inhib,HIV Env fusion,MT1-MMP act inh,MT1-MMP act inh RFP,eIF4H inh,UUG fidelity,PABP polyA inh,Rce1 inhib,others
CN1CCN(C(=S)c2cn(Cc3cccc(F)c3)c3ccccc23)CC1,4,0,-4,1,-4,/,2,i,
CC(=O)NC1CCN(C(=O)N2CCCC2)CC1,7,1,1,0,-7,-17,-2,i,

# Assay outcomes as filed in PubChem.
